rRNA inh HTS = inhibits bacterial ribosomal RNA function over humanized ribosomes. E. coli WT GFP vs humanized-ribosome RFP mutants, fluorescence, 24 h; hits give low values; DMSO median 0, no signal -100. GFP signal change (wild-type ribosome), % (concentration not given with the values). hit rate 1.6% among 350,000;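 active means significant combined selectivity score with lowered wild-type GFP, culture density cut under 30%, mutant RFP and density less affected; inactive means any of these conditions unmet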; further: one replicate is shown; some compounds called inactive have numbers as strong as hits
rRNA inh HTS OD600 = second read-out of rRNA inh HTS, no call of its own (marks repeat the call); OD600 change, %; measured here: OD600 growth;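 optical density of the mix in the first replicate; 0 = DMSO median and -100 = no signal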
rRNA inh HTS RFP = recorded beside rRNA inh HTS, whose call it bears; RFP signal change, %; measured here: RFP humanized mutant strains;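 first replicate; 0 = DMSO median and -100 = no signal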
Starred values were filed as active, the others as inactive.

rRNA inh HTS,rRNA inh HTS RFP,rRNA inh HTS OD600,mol
3,-0.7,3,COc1ccc(NC(=O)N(C)C[C@H]2Oc3ccc(NS(=O)(=O)c4ccc(Cl)cc4)cc3C(=O)N([C@@H](C)CO)C[C@@H]2C)cc1
1,-2.8,-5,C[C@H](CO)N1C[C@H](C)[C@H](CN(C)C(=O)Cc2ccccc2)Oc2cc(-c3cncnc3)ccc2S1(=O)=O
-14,-3.2,-49,O=C(C[C@@H]1CC[C@@H]2[C@H](COC[C@@H](O)CN2S(=O)(=O)c2ccc(F)cc2)O1)NCc1ccc(Cl)c(Cl)c1
-1,-4.2,9,CN1CCN(C(=O)C[C@H]2CC[C@H]3[C@@H](COC[C@H](O)CN3CC3CC3)O2)CC1
-4,37,-34,CO[C@H](CN(C)S(=O)(=O)c1cccc(Cl)c1)[C@@H](C)CN([C@@H](C)CO)S(=O)(=O)c1cccc(Cl)c1
-5,0.7,-1,C[C@H]1CN([C@@H](C)CO)C(=O)Cc2cc(NC(=O)C3CC3)ccc2O[C@H]1CN(C)Cc1ccc(C(=O)Nc2ccccc2N)cc1
-14*,8.3*,-7.3*,COc1ccc(CCNC(=O)Nc2nc(C(N)COCc3ccccc3)cs2)cc1OC (stereo unspecified)
-2,-0.8,-5,C[C@@H]1CN([C@@H](C)CO)C(=O)c2cc(NS(=O)(=O)c3ccc(F)cc3)ccc2O[C@H]1CN(C)S(=O)(=O)c1cccs1
2,2.5,22,C[C@@H]1CN([C@H](C)CO)C(=O)c2cc(C3=CCCCC3)cnc2O[C@H]1CN(C)S(=O)(=O)c1cn(C)cn1
4,0.7,3,COc1ccc(NC(=O)N(C)C[C@@H]2Oc3ccc(NC(=O)Nc4c(C)noc4C)cc3CC(=O)N([C@H](C)CO)C[C@@H]2C)cc1
3,1.1,0,CCCNC(=O)C1(C)CCCN(Cc2ccc(Cl)cc2)C1 (stereo unspecified)
5,-1.2,7,CCNC(=O)C1(C)CCCN(C(=O)c2cc(C)n(C(C)(C)C)n2)C1 (stereo unspecified)

Rewritten as tab-separated lines: two of the compounds above
Compound	rRNA inh HTS	rRNA inh HTS RFP	rRNA inh HTS OD600
C[C@@H]1CN([C@@H](C)CO)C(=O)c2cc(NS(=O)(=O)c3ccc(F)cc3)ccc2O[C@H]1CN(C)S(=O)(=O)c1cccs1	-2	-0.8	-5
C[C@@H]1CN([C@H](C)CO)C(=O)c2cc(C3=CCCCC3)cnc2O[C@H]1CN(C)S(=O)(=O)c1cn(C)cn1	2	2.5	22

Continued:
rRNA inh HTS,rRNA inh HTS RFP,rRNA inh HTS OD600,mol
-1,1.5,1,C[C@H](CO)N1C[C@H](C)[C@H](CN(C)S(=O)(=O)c2ccc(F)cc2)Oc2c(NS(=O)(=O)c3ccccc3)cccc2C1=O
-3,-3.6,5,O=C(Nc1ccc2c(c1)OCO2)N[C@@H]1CC[C@H](CCNC(=O)C2CCC2)O[C@@H]1CO
0,-6.3,6,CC(C)NC(=O)C1C(c2ccc(C(F)(F)F)cc2)=Nc2ccccc2N1C(=O)c1cccc2ccccc12 (stereo unspecified)
-2,1.7,-4,C[C@@H]1CN([C@@H](C)CO)C(=O)c2cc(NS(C)(=O)=O)ccc2O[C@@H](C)CCCCO[C@H]1CN(C)S(=O)(=O)c1ccc(F)cc1
-1,-3.6,3,C[C@@H]1CCCCO[C@H](CN(C)C(=O)Nc2ccc3c(c2)OCO3)[C@@H](C)CN([C@H](C)CO)C(=O)c2cc(NS(=O)(=O)c3cccs3)ccc2O1
-3,1.7,0,Cc1ccc(-c2cc(NC(=O)Cc3c(C)[nH]c4ccccc34)ccc2Nc2cccnc2)cc1
-2,-0.4,-6,O=C(NC[C@@H]1[C@H](c2ccccc2)[C@H](CO)N1CC1CCCC1)c1cccnc1
2,0.3,4,C[C@@H]1CCCCO[C@@H](CN(C)Cc2ccc3c(c2)OCO3)[C@H](C)CN([C@H](C)CO)C(=O)c2cc(NS(=O)(=O)c3cn(C)cn3)ccc2O1
-2,21,-33,COc1ccc(CN(C)C[C@H]2OCCCC[C@@H](C)Oc3ccc(NC(=O)Nc4ccc5c(c4)OCO5)cc3C(=O)N([C@@H](C)CO)C[C@@H]2C)cc1
3,-1.7,13,C[C@@H]1CCCCO[C@H](CN(C)S(=O)(=O)c2ccccc2)[C@@H](C)CN([C@H](C)CO)C(=O)c2cc(NC(=O)Nc3ccc(C(F)(F)F)cc3)ccc2O1
3,-1.4,6,C[C@@H]1CCCCO[C@@H](CN(C)S(C)(=O)=O)[C@@H](C)CN([C@@H](C)CO)C(=O)c2cc(NS(=O)(=O)c3ccccc3)ccc2O1
-6,15,-31,C[C@@H]1CN([C@@H](C)CO)C(=O)Cc2cc(NC(=O)CCC(F)(F)F)ccc2O[C@H]1CN(C)Cc1ccc(C(F)(F)F)cc1
3,-1.7,-5,O=C(C[C@@H]1CC[C@@H]2[C@H](COC[C@@H](O)CN2C(=O)c2ccccc2F)O1)N1CCN(c2ccccc2)CC1
2,0.4,2,CO[C@H]1CN(C)C(=O)c2cc(NC(C)=O)ccc2OC[C@H](C)N(C(=O)c2ccncc2)C[C@@H]1C
-2,7.0,-2,Cc1noc(C)c1S(=O)(=O)Nc1ccc2c(c1)C(=O)N([C@H](C)CO)C[C@H](C)[C@H](CN(C)Cc1ccc(Cl)c(Cl)c1)O2
3,3.3,13,O=C(C[C@@H]1CC[C@H]2[C@@H](COC[C@@H](O)CN2C(=O)c2ccccc2)O1)N1CCc2ccccc2C1
-15,0.0,-19,CC1=C(C(=O)N2CCCCCC2)CC(CC(=O)NCC2CCCCC2)C(=O)N1Cc1ccccc1 (stereo unspecified)
7,4.7,12,CCCCCC(=O)N1C[C@@H](O)[C@H](n2cc(COC(=O)c3ccccc3)nn2)C[C@@H]1c1ccc(OC)cc1
5,-1.6,-3,C[C@H]1CN([C@@H](C)CO)C(=O)c2cc(-c3ccc(F)cc3)cnc2O[C@@H]1CN(C)CC1CCCCC1
-7,-2.6,-5,C[C@H]1CN([C@@H](C)CO)S(=O)(=O)c2ccc(-c3cccc(C(=O)N(C)C)c3)cc2O[C@@H]1CN(C)C(=O)Nc1ccccc1
-1,1.8,-5,CCC(=O)Nc1ccc2c(c1)C(=O)N(C)C[C@H](OC)[C@@H](C)CN(C(=O)c1ccc(F)cc1)[C@@H](C)CO2
0,-3.6,7,C[C@H](CO)N1C[C@H](C)[C@H](CN(C)C(=O)Nc2ccccc2)Oc2ncc(C#CC(C)(C)O)cc2C1=O
1,1.1,6,COC(=O)C[C@H]1C[C@H]2c3cc(NC(=O)NC4CCCC4)ccc3O[C@H]2[C@H](CO)O1
-1,-1.2,4,CN1C(=O)c2cc(NC(=O)Cc3cccs3)ccc2OC[C@H]2O[C@@H](CC(=O)N[C@@H]3CCN(Cc4ccccc4)C3)CC[C@H]21
11,0.5,27,OC(c1ccc(CN2CCCCC2)cc1)c1ncc(-c2ccccc2)[nH]1 (stereo unspecified)
-5,1.9,-9,COc1ccc(NC(=O)Nc2cccc3c2O[C@H](CN(C)CC2CCCCC2)[C@@H](C)CN([C@H](C)CO)C3=O)cc1
-2,-2.7,-6,C[C@@H]1CCCCO[C@H](CN(C)C(=O)Nc2ccc(F)cc2)[C@H](C)CN([C@@H](C)CO)C(=O)c2cc(NC(=O)C3CCCCC3)ccc2O1
3,-1.5,4,CCCN(C)C[C@@H]1OCCCC[C@@H](C)Oc2ccc(NC(=O)C3CCCCC3)cc2C(=O)N([C@H](C)CO)C[C@@H]1C
4,0.0,7,Cn1cnc(CCNC(=O)C[C@@H]2CC[C@@H]3[C@H](COC[C@@H](O)CN3C(=O)C3CC3)O2)c1
-8,5.1,-18,CN1C(=O)c2cc(NS(=O)(=O)c3ccc(Cl)cc3)ccc2OC[C@H]2O[C@H](CC(=O)N3CCc4ccccc4C3)CC[C@H]21
-34,0.0,-43,COc1cccc(-c2ccc3c(c2)O[C@@H](CN(C)Cc2ccncc2)[C@H](C)CN([C@H](C)CO)S3(=O)=O)c1
-10,1.2,-15,C[C@H](CO)N1C[C@H](C)[C@H](CN(C)Cc2ccc(C(F)(F)F)cc2)Oc2ccc(NC(=O)c3ccncc3)cc2CC1=O
-3,1.7,-3,CC(C)NC(=O)Nc1cccc2c1O[C@H](CN(C)Cc1ccccc1)[C@@H](C)CN([C@H](C)CO)C2=O
-2,-0.3,0,COC(=O)C[C@H]1C[C@H]2c3cc(NC(=O)Nc4ccccc4)ccc3O[C@H]2[C@H](CO)O1
0,-2.1,8,C[C@@H]1CN([C@@H](C)CO)C(=O)c2cc(NC(=O)C3CCCCC3)ccc2O[C@H]1CN(C)Cc1ccncc1
0,-0.5,3,CCCNC(=O)N1C[C@H](C)[C@H](OC)CN(C)C(=O)c2ccc(NC(C)=O)cc2OC[C@@H]1C
-11,4.3,-11,C[C@@H]1CN([C@H](C)CO)S(=O)(=O)c2ccc(C#Cc3ccccc3F)cc2O[C@H]1CN(C)CC1CCOCC1
16,12,10,N#CC1C(=O)NC(=O)C(C#N)C12CCCc1sccc12 (stereo unspecified)
8,4.8,25,CC1(C(=O)NS(=O)(=O)c2cccc(C#N)c2)CCN1C(=O)c1cccc2ccccc12 (stereo unspecified)
-16,0.6,-19,CCc1nc2c(OCCc3cccc(OC)c3)cccn2c1N(C=O)Cc1ccccc1
0,-0.4,4,CCCNC(=O)N1CC2(C1)CN(C(=O)c1cccnc1)[C@@H](CO)c1[nH]c3cc(OC)ccc3c12
-1,0.5,-1,NC(CCc1ccccc1)c1csc(NC(=O)NCCc2ccccc2)n1 (stereo unspecified)
1,0.4,2,COc1ccc(CN(C)C[C@H]2OCCCC[C@@H](C)Oc3ccc(NS(=O)(=O)c4ccccc4)cc3C(=O)N([C@@H](C)CO)C[C@H]2C)cc1
18,-2.6,7,OC[C@@H]1CN(Cc2cccnc2)C[C@H](n2cnc3c(N4CCN(c5ccccc5)CC4)ncnc32)O1
2,4.1,10,CN1C(=O)c2cc(NS(C)(=O)=O)ccc2OC[C@H]2O[C@H](CC(=O)NC3CCCCC3)CC[C@H]21
-1,-2.0,2,CO[C@@H]1CN(C)C(=O)c2ccc(NS(=O)(=O)CC(F)(F)F)cc2OC[C@H](C)N(C(=O)NC(C)C)C[C@H]1C
-18,-4.2,-10,COc1cccc(S(=O)(=O)N(C)C[C@H]2Oc3ncc(-c4cccc(C(=O)N(C)C)c4)cc3C(=O)N([C@H](C)CO)C[C@@H]2C)c1
-2,1.1,4,Cc1noc(C)c1NC(=O)Nc1ccc2c(c1)C(=O)N([C@@H](C)CO)C[C@@H](C)[C@@H](CN(C)S(=O)(=O)c1c(C)noc1C)OCCCC[C@@H](C)O2
1,-0.7,6,CO[C@H]1CN(C)C(=O)c2ccc(NS(=O)(=O)c3cn(C)cn3)cc2OC[C@@H](C)N(C)C[C@@H]1C
7,-1.0,22,CCCCn1nnnc1C(c1ccccc1)N1CCN(C(=O)C2CCCO2)CC1 (stereo unspecified)
1,-3.9,5,C[C@@H]1CN([C@H](C)CO)C(=O)c2cccc(NC(=O)c3ccncc3)c2O[C@H]1CN(C)S(C)(=O)=O
-25,-1.1,-33,C[C@@H]1CN([C@H](C)CO)S(=O)(=O)c2ccc(C#CC3CCCCC3)cc2O[C@@H]1CN(C)C
0,0.9,-7,C[C@@H](NC(=O)C[C@H]1CC[C@H](NC(=O)CN2CCOCC2)[C@@H](CO)O1)c1ccccc1
-15,-5.4,-31,CCCCN(C)c1c(C)nc2ccc(C(=O)NCc3ccc(OC)cc3)cn12
3,1.3,14,CC(C)NC(=O)N[C@@H]1CC[C@@H](CCNC(=O)C2CC2)O[C@H]1CO
1,-3.7,0,CC(C)NC(=O)N1CC2(C1)[C@H](c1ccccc1)[C@H](CO)N2C(=O)C1CCC1
-7,1.4,-14,COc1ccccc1-c1cn(CC[C@H]2CC[C@H](NS(=O)(=O)c3ccccc3C)[C@H](CO)O2)nn1
1,5.1,-16,C[C@H]1CN([C@@H](C)CO)C(=O)c2cc(NC(=O)Nc3ccc(F)cc3)ccc2O[C@H]1CN(C)Cc1ccc(Oc2ccccc2)cc1
5,2.5,6,C[C@H](O)C#Cc1ccc([C@@H]2[C@H](CO)N3CCCCN(C(=O)c4ccncc4)C[C@@H]23)cc1
2,-2.5,1,CCCNC(=O)N1C[C@@H](C)[C@H](OC)CN(C)C(=O)c2cc(NC(=O)CC)ccc2OC[C@@H]1C
-2,0.2,5,O=C(Nc1ccccc1F)N[C@@H]1CC[C@H](CC(=O)N2CCCCC2)O[C@H]1CO
4,-4.5,-8,COc1ccc2c3c(n(C)c2c1)[C@@H](CO)N(Cc1ccccc1F)CC31CCN(C(=O)C2CCCC2)CC1

Of the compounds above, these contain two or more sulfur atoms.
rRNA inh HTS,rRNA inh HTS RFP,rRNA inh HTS OD600,mol
-4,37,-34,CO[C@H](CN(C)S(=O)(=O)c1cccc(Cl)c1)[C@@H](C)CN([C@@H](C)CO)S(=O)(=O)c1cccc(Cl)c1
-2,-0.8,-5,C[C@@H]1CN([C@@H](C)CO)C(=O)c2cc(NS(=O)(=O)c3ccc(F)cc3)ccc2O[C@H]1CN(C)S(=O)(=O)c1cccs1
-1,1.5,1,C[C@H](CO)N1C[C@H](C)[C@H](CN(C)S(=O)(=O)c2ccc(F)cc2)Oc2c(NS(=O)(=O)c3ccccc3)cccc2C1=O
-2,1.7,-4,C[C@@H]1CN([C@@H](C)CO)C(=O)c2cc(NS(C)(=O)=O)ccc2O[C@@H](C)CCCCO[C@H]1CN(C)S(=O)(=O)c1ccc(F)cc1
-1,-3.6,3,C[C@@H]1CCCCO[C@H](CN(C)C(=O)Nc2ccc3c(c2)OCO3)[C@@H](C)CN([C@H](C)CO)C(=O)c2cc(NS(=O)(=O)c3cccs3)ccc2O1
3,-1.4,6,C[C@@H]1CCCCO[C@@H](CN(C)S(C)(=O)=O)[C@@H](C)CN([C@@H](C)CO)C(=O)c2cc(NS(=O)(=O)c3ccccc3)ccc2O1

Compound activity: PubChem, Broad Institute

Only part of the results is shown; the hit share may differ from the screen's.
